YB-1 expression: inhibitors of YB-1 gene expression, primary screen, cell-based, fluorescence; U2OS, qRT-PCR YB-1 vs CDIP delta delta Cp, 16 h; stronger effect = higher value; zero = DMSO, each unit about twofold; delta delta Cp (YB-1 minus CDIP) (test concentration not listed); 30,000 tested, 0.37% active; AID 434959, 2010;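 active means delta delta Cp rounded down to an integer at or above 3, about 3 SD of DMSO wells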;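 further: higher means less YB-1 transcript or more CDIP transcript relative to DMSO; stock transfer was 100 nL into about 100 µL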
The depositor's hits bear a star. Some of the compounds tested; count on the stated rates, not on these rows.

smiles | YB-1 expression
Cc1ccc(O)c(/C=N/NC(=O)c2cccc(C(=O)NO)c2)c1 | 0.12
COc1cc(/C=C/C=N/NC(=O)c2ccccc2O)ccc1O | 0.089
C[C@H](CO)N1C[C@H](C)[C@@H](CN(C)Cc2ccc3c(c2)OCCO3)OCc2cn(nn2)CCCC1=O | 0.43
O=C1N(Cc2ccccc2)Cc2ccccc2[C@@H]2OC(c3ccc(OCCCO)cc3)=N[C@]12CCS(=O)(=O)c1ccccc1 | -0.25
O=C(CCCCCC(=O)Nc1ccccc1O)N/N=C\c1ccncc1Br | 0.33
O=C(CCCCCCC(=O)Nc1ccccc1O)N/N=C/c1ccccc1[N+](=O)[O-] | -0.48
O=C(CCCCCCC(=O)Nc1ccccc1O)N/N=C/[C@H](O)[C@@H](O)[C@H](O[C@@H]1O[C@H](CO)[C@H](O)[C@H](O)[C@H]1O)[C@H](O)CO | -0.29
C[C@H](CO)N1C[C@H](C)[C@H](CN(C)S(=O)(=O)c2cccs2)Oc2ncc(-c3cccc(C(F)(F)F)c3)cc2C1=O | 0.1
C[C@H](CO)N1C[C@H](C)[C@H](CN(C)Cc2ccc(-c3ccccc3)cc2)OCc2cn(nn2)CCCC1=O | 0.013
C[C@H]1CN([C@@H](C)CO)C(=O)CCCn2cc(nn2)CO[C@H]1CN(C)C(=O)Nc1ccc(-c2cccs2)cc1 | -0.1
O=C(N1CCOCC1)[C@@]1(Cc2ccccc2)COC(c2ccc(OCCCO)cc2)=N1 | 0.55
O=C(CCCCC(=O)N/N=C/c1c(O)ccc2ccccc12)NO | 0.56
C[C@H]1CN([C@@H](C)CO)C(=O)CCCn2cc(nn2)CO[C@@H]1CN(C)C(=O)Nc1cccc(C(F)(F)F)c1 | 0.12
C[C@@H]1CN([C@H](C)CO)C(=O)CCCn2cc(nn2)CO[C@@H]1CN(C)C(=O)Nc1ccc(F)cc1 | 0.41
CNC[C@@H]1OCc2cnnn2CCCC(=O)N([C@@H](C)CO)C[C@H]1C | -0.13
C[C@@H]1CN([C@H](C)CO)C(=O)CCCn2nncc2CO[C@@H]1CN(C)C(=O)Nc1ccc(F)cc1 | 0.01
COc1ccc(CCN2C(=O)[C@@]3(Cc4ccccc42)c2ccccc2C(=O)N(C2CCCCC2)[C@H]3c2ccc(CO)cc2)cc1 | -0.057
COc1cccc(-c2cnc3c(c2)C(=O)N([C@H](C)CO)C[C@H](C)[C@H](CN(C)C(=O)Nc2ccc(F)cc2)O3)c1 | -0.35
CCCCCCC/C=N/NC(=O)CCCCCCC(=O)Nc1ccccc1O | -0.28
C[C@@H]1CN([C@H](C)CO)C(=O)CCCn2cc(nn2)CO[C@H]1CN(C)C | -0.044
COc1ccccc1CN(C)C[C@H]1OCc2cnnn2CCCC(=O)N([C@@H](C)CO)C[C@@H]1C | -0.3
C[C@@H]1CN([C@H](C)CO)C(=O)CCCn2nncc2CO[C@H]1CN(C)C(=O)c1ccccc1 | 0.21
O=C(NO)c1ccc(C(=O)N/N=C/c2cccs2)cc1 | -0.28
C[C@@H]1CN([C@@H](C)CO)C(=O)CCCn2cc(nn2)CO[C@H]1CN(C)S(=O)(=O)c1ccc(-n2cccn2)cc1 | -0.014
O=C(N/N=C/c1ccc(C(F)(F)F)cc1)c1ccccn1 | 0.044

smiles | YB-1 expression
Cc1ncc(CO)c(/C=N/NC(=O)c2cccc(C(=O)NO)c2)c1O | 0.0096
COC(=O)C(CC#Cc1ccc2c(c1)[C@]1(C(=O)N2)[C@H](c2ccccc2OCCO)N2[C@H](c3ccccc3)[C@H](c3ccccc3)OC(=O)[C@H]2[C@@H]1C(=O)O)C(=O)OC | -0.64
C[C@H](CO)N1C[C@H](C)[C@H](CN(C)C(=O)Nc2ccccc2)OCc2cn(nn2)CCCC1=O | -0.55
COc1ccc(S(=O)(=O)N(C)C[C@@H]2Oc3ncc(-c4ccccc4)cc3C(=O)N([C@H](C)CO)C[C@@H]2C)cc1 | 0.2
COC(=O)CCCCCCC(=O)N/N=C/[C@H](O)[C@@H](O)[C@H](O)CO | -0.05
O=C(NO)c1cccc(C(=O)N/N=C/c2cccnc2)c1 | -0.055
Cc1ccccc1/C=N/NC(=O)c1cccc(C(=O)NO)c1 | 0.48
C[C@@H]1CN([C@H](C)CO)C(=O)CCCn2nncc2CO[C@H]1CN(C)C(=O)OCc1ccccc1 | 0.2
O=C(NO)c1cccc(C(=O)N/N=C/c2cccc(OCCO)c2)c1 | 0.2
COc1cc2c(cc1O)C(c1cccs1)N(C)CC2 (stereo not drawn) | -0.24
COc1ccc(C#Cc2cnc3c(c2)C(=O)N([C@H](C)CO)C[C@H](C)[C@H](CN(C)S(=O)(=O)c2ccc(C#N)cc2)O3)cc1OC | -0.47
O=C(N/N=C/c1cccs1)c1ccccn1 | 0.12
O=C1O[C@H](c2ccccc2)[C@H](c2ccccc2)N2[C@H]1[C@@H](C(=O)N1CCN(c3ncccn3)CC1)[C@]1(C(=O)Nc3ccc(C#CCCO)cc31)[C@H]2c1ccc(O)cc1 | -1
COc1ccccc1NC(=O)N(C)C[C@@H]1OCc2cn(nn2)CCCC(=O)N([C@H](C)CO)C[C@@H]1C | -0.11
CNC[C@@H]1Oc2ncc(-c3ccccc3)cc2C(=O)N([C@H](C)CO)C[C@@H]1C | 0.24
COC(=O)N(C)C[C@@H]1OCc2cn(nn2)CCCC(=O)N([C@@H](C)CO)C[C@H]1C | -0.21
C[C@@H]1CN([C@H](C)CO)C(=O)CCCn2cc(nn2)CO[C@@H]1CN(C)C(=O)c1ccncc1 | 0.13
COC(=O)N(C)C[C@@H]1OCc2cnnn2CCCC(=O)N([C@H](C)CO)C[C@H]1C | 0.036
O=C(CCCCC(=O)N/N=C/c1cc(O)ccc1O)NO | 0.34
Cc1ccccc1S(=O)(=O)N(C)C[C@@H]1OCc2cnnn2CCCC(=O)N([C@@H](C)CO)C[C@H]1C | 0.31
COc1ccc(NC(=O)N(C)C[C@H]2OCc3cnnn3CCCC(=O)N([C@@H](C)CO)C[C@@H]2C)c(OC)c1 | -0.29
COC(=O)CCCCCCC(=O)N/N=C/c1cccc(O)c1 | 0.29
Cc1ccc(CN(C)C[C@H]2OCc3cn(nn3)CCCC(=O)N([C@H](C)CO)C[C@@H]2C)cc1 | -0.067
C[C@@H]1CN([C@@H](C)CO)C(=O)CCCn2nncc2CO[C@@H]1CN(C)C(=O)c1ccccc1 | 0.27
C=CC[C@]1(C(=O)NCCCOC)COC(c2ccc(OCCCO)cc2)=N1 | -0.61

smiles | YB-1 expression
C[C@H](CO)N1C[C@H](C)[C@H](CN(C)C(=O)Nc2ccc3c(c2)OCO3)Oc2ncc(Br)cc2C1=O | 0.25
COCCOC(=O)N1C(=O)[C@@]2(c3ccccc31)[C@H](c1ccc(O)cc1)N1[C@H](c3ccccc3)[C@H](c3ccccc3)OC(=O)[C@H]1[C@@H]2C(=O)NC[C@H](O)c1ccccc1 | -0.41
COc1ccc(C#Cc2ccc3c(c2)[C@]2(C(=O)N3)[C@H](c3ccc(OCCO)cc3)N3[C@H](c4ccccc4)[C@H](c4ccccc4)OC(=O)[C@H]3[C@@H]2C(N)=O)cc1 | -0.14
COc1ccc(NC(=O)N(C)C[C@@H]2Oc3ncc(-c4cccc(C(F)(F)F)c4)cc3C(=O)N([C@H](C)CO)C[C@@H]2C)cc1 | -0.015
C[C@@H]1CN([C@@H](C)CO)C(=O)CCCn2cc(nn2)CO[C@@H]1CN(C)C(=O)CCCN(C)C | -0.58
O=C(NO)c1cccc(C(=O)N/N=C/c2ccco2)c1 | -0.48
CC(C)(C)OC(=O)Nc1ccc(/C=N/NC(=O)c2ccccn2)cc1 | 0.28
C=CCOC(=O)[C@H]1[C@@H]2C(=O)O[C@@H](c3ccccc3)[C@@H](c3ccccc3)N2[C@@H](c2ccc(OCCOC(=O)[C@@H]3C[C@@H]4C(=O)N[C@@H](CCCCNC(C)=O)C(=O)N4[C@@H]3c3ccc(O)cc3)cc2)[C@]12C(=O)Nc1ccc(I)cc12 | 0.0051
C[C@@H]1CN([C@H](C)CO)C(=O)CCCn2cc(nn2)CO[C@H]1CN(C)S(=O)(=O)c1ccc(C#N)cc1 | -0.16
C[C@@H]1CN([C@H](C)CO)C(=O)CCCn2cc(nn2)CO[C@@H]1CN(C)S(=O)(=O)c1ccc2c(c1)OCCCO2 | 0.13
O=C(NO)c1cccc(C(=O)N/N=C/c2ccccc2Br)c1 | 0.29
Cc1ccc(S(=O)(=O)N(C)C[C@@H]2OCc3cn(nn3)CCCC(=O)N([C@H](C)CO)C[C@@H]2C)cc1 | -0.54
C[C@@H]1CN([C@H](C)CO)C(=O)CCCn2cc(nn2)CO[C@@H]1CN(C)C(=O)CCCN(C)C | 0.23
C[C@H](CO)N1C[C@H](C)[C@H](CN(C)C(=O)Nc2cccc(F)c2)OCc2cnnn2CCCC1=O | -0.21
COc1ccc(C#Cc2ccc3c(c2)[C@]2(C(=O)N3)[C@H](c3ccc(OCCO)cc3)N3[C@H](c4ccccc4)[C@H](c4ccccc4)OC(=O)[C@H]3[C@@H]2C(=O)NC[C@H](O)c2ccccc2)cc1 | -0.14
CC(C)NC(=O)N(C)C[C@@H]1Oc2ncc(C#CC(C)(C)O)cc2C(=O)N([C@H](C)CO)C[C@@H]1C | -0.16
C[C@H]1CN([C@@H](C)CO)C(=O)CCCn2cc(nn2)CO[C@@H]1CN(C)C(=O)Nc1ccccc1C(F)(F)F | -0.53
COc1ccc(C#Cc2cnc3c(c2)C(=O)N([C@H](C)CO)C[C@H](C)[C@H](CN(C)C(=O)NC(C)C)O3)cc1OC | 0.18
CC(C)(C)OC(=O)N1CCC[C@H]1/C=N/NC(=O)c1ccccn1 | 0.042
CCn1c2ccccc2c2cc(/C=N/NC(=O)CCCCCCC(=O)OC)ccc21 | -0.33
C[C@H]1CN([C@@H](C)CO)C(=O)CCCn2cc(nn2)CO[C@@H]1CN(C)C(=O)Nc1ccc(C(F)(F)F)cc1 | 0.39
O=C(CCCCC(=O)NN=C1CCCC1)NO | -0.22
C[C@@H]1CN([C@@H](C)CO)C(=O)CCCn2cc(nn2)CO[C@H]1CN(C)C(=O)Nc1ccccc1C(F)(F)F | 0.12
C[C@H](CO)N1C[C@H](C)[C@H](CN(C)Cc2ccc(F)cc2)Oc2ncc(C#CCN(C)C)cc2C1=O | -1.1
COC(=O)[C@]1(Cc2ccccc2CN=[N+]=[N-])N=C(c2ccc(OCCCO)cc2)O[C@@H]1c1ccccc1N=[N+]=[N-] | -0.4

Pulled by structure from the entries so far:
smiles | YB-1 expression
C[C@@H]1CN([C@H](C)CO)C(=O)CCCn2cc(nn2)CO[C@@H]1CN(C)S(=O)(=O)c1ccc2c(c1)OCCCO2 | 0.13
Cc1ccc(S(=O)(=O)N(C)C[C@@H]2OCc3cn(nn3)CCCC(=O)N([C@H](C)CO)C[C@@H]2C)cc1 | -0.54
COc1ccc(C#Cc2cnc3c(c2)C(=O)N([C@H](C)CO)C[C@H](C)[C@H](CN(C)C(=O)NC(C)C)O3)cc1OC | 0.18
COc1ccc(NC(=O)N(C)C[C@@H]2Oc3ncc(-c4cccc(C(F)(F)F)c4)cc3C(=O)N([C@H](C)CO)C[C@@H]2C)cc1 | -0.015

Back to the main list with the three entries that preceded the break.
smiles | YB-1 expression
C[C@@H]1CN([C@@H](C)CO)C(=O)CCCn2cc(nn2)CO[C@H]1CN(C)C(=O)Nc1ccccc1C(F)(F)F | 0.12
C[C@H](CO)N1C[C@H](C)[C@H](CN(C)Cc2ccc(F)cc2)Oc2ncc(C#CCN(C)C)cc2C1=O | -1.1
COC(=O)[C@]1(Cc2ccccc2CN=[N+]=[N-])N=C(c2ccc(OCCCO)cc2)O[C@@H]1c1ccccc1N=[N+]=[N-] | -0.4
O=S(=O)(N[C@@H]1CCCN(Cc2cccc(OCCO)c2)C1)c1cc(C(F)(F)F)ccc1Cl | -0.096
COC(=O)CCCCCCC(=O)NN=C1CCCC1 | -0.34
O=C(NCc1ccccc1)[C@@]1(CCS(=O)(=O)c2ccccc2)N=C(c2ccc(OCCCO)cc2)O[C@H]1c1ccccc1 | -0.33
COC(=O)CCCCCCC(=O)N/N=C/c1cccc(NC(=O)OC(C)(C)C)c1 | 0.29
Cc1ccc(CN(C)C[C@@H]2OCc3cnnn3CCCC(=O)N([C@H](C)CO)C[C@H]2C)cc1 | -0.048
O=C(O)CCCCCC(=O)N/N=C/c1cc(O)ccc1Br | 0.51
NC(=O)[C@@H]1[C@H]2C(=O)O[C@H](c3ccccc3)[C@H](c3ccccc3)N2[C@H](c2ccccc2OCCO)[C@@]12C(=O)Nc1ccc(C#CC3(O)CCCCCC3)cc12 | -0.4
O=C(NO)c1cccc(C(=O)N/N=C/c2ccc[nH]2)c1 | -0.026
COCCCNC(=O)[C@@]1(CCS(=O)(=O)c2ccccc2)N=C(c2ccc(OCCCO)cc2)O[C@H]1c1ccccc1 | 0.18
COc1ccc([Si](C)(C)[C@H]2[C@H](CCO)O[C@@]3(C(=O)N(Cc4ccccc4)c4ccc(NC(=O)[C@H](C)O)cc43)[C@@H]2C)cc1 | 0.15
C[C@H](CO)N1C[C@H](C)[C@@H](CN(C)S(=O)(=O)c2ccc(-c3ccccc3)cc2)OCc2cn(nn2)CCCC1=O | -0.15
C[C@H](CO)N1C[C@H](C)[C@H](CN(C)C(=O)NC2CCCCC2)Oc2ncc(Br)cc2C1=O | -0.17
COc1ccccc1NC(=O)N(C)C[C@H]1OCc2cnnn2CCCC(=O)N([C@@H](C)CO)C[C@H]1C | -0.11
CC(C)(C)OC(=O)NC1(/C=N/NC(=O)CCCCCC(=O)Nc2ccccc2O)CCCC1 | -0.065
O=C(N/N=C/c1ccc(-c2ccccc2)cc1)c1ccccc1O | 0.2
COc1ccc(/C=N/NC(=O)c2ccccc2O)cc1 | 0.36
CC1(C)COC(CCC/C=N/NC(=O)c2cccc(C(=O)NO)c2)OC1 | -0.13
C[C@H](CO)N1C[C@H](C)[C@H](CN(C)S(=O)(=O)c2ccccc2F)OCc2cnnn2CCCC1=O | 0.62
CCOc1cccc(/C=N/NC(=O)c2cccc(C(=O)NO)c2)c1OCC | 0.28

Screening data deposited in PubChem BioAssay by Broad Institute.
